High-throughput results: PubChem, several laboratories
BJeLR lethal: BJeLR cell viability loss. BJeLR (HRASV12) viability, CellTiter-Glo ATP luminescence, 48 h; reference of the scale not given here. inhibition, % (concentration not given with the values). 0.17% of 300,000 active. AID 1554;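 active = replicate mean above 50%; inconclusive = above 50% but judged a plate artefact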;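 note: 50 nL library stock added to about 25 µL; numbers are from one replicate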
PrP 5UTR inh: suppresses PrP 5' UTR mRNA reporter expression; 0.35% of 340,000 active; inhibition, % (no concentration beside the values); cell-based PrP 5' UTR mRNA reporter, plate reader; AID 488862;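 active = every replicate at 50% or more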;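 note: 0 = median of the neutral control wells; tested in H4 reporter cells; numbers are from one replicate; inactives centre near -14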
Sa RN4220 lethal: kills Staphylococcus aureus RN4220. S. aureus RN4220 growth, OD600, 16 h. inhibition, % (concentration not given with the values). 0.33% of 330,000 active. AID 1259311;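 active = z-score of -3 or lower and OD600 up to 0.18 on both plates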;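 note: plate controls were untreated cells for no effect and reference antibiotic for full effect; stock transfer was 100 nL into about 80 µL; one replicate is shown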
Autofluor counter: flagged as autofluorescent in microsphere protease counterscreen | AID 624483 | compound autofluorescence counterscreen, microsphere flow cytometry; stronger effect = higher value | 3.1% of 360,000 active | fluorescence intensity (concentration not given with the values);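 active = at least 3 SD above the mean of all compounds, about 16000 in these data; inconclusive = too few beads counted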;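 note: 100 nL of 1 mM stock went into each well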
Mtb hypoxia inh: inhibitors of hypoxia-regulated fluorescent reporter in Mycobacterium tuberculosis; M. tuberculosis hypoxia-regulated fluorescent reporter, fluorescence; fluorescence inhibition, % (test concentration not listed); 0.1% of 300,000 active;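 active = 35 to 45% if threefold the growth effect, above 45% if 1.5-fold the growth effect; inactive = the rest, general growth blockers included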;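 note: wells of about 50 µL received 100 nL stock; 0% = vehicle wells and 100% = reference inhibitor wells; whole bacteria with a GFP reporter of the hypoxia response; strong numbers were not always called active; many hits fall short of the cut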
Sa ugtP lethal: compounds lethal to S. aureus RN4220 ugtP deletion mutant; 0.54% of 330,000 active; OD600 growth, 16 h; some inactives read as strong as hits; growth inhibition, % (no concentration beside the values);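 active = z-score under -3 and OD600 up to 0.15 on both plates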;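 note: plate controls were untreated wells for no effect and antibiotic for full effect; wells of about 80 µL received 100 nL stock; the first replicate is given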
Mtb hypoxia inh growth: further read-out of Mtb hypoxia inh, marked with its call; growth inhibition, %; measured here: M. tuberculosis growth (absorbance);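 0% = vehicle and 100% = reference antibiotic; read after six days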
* hit, by the source's call; u = inconclusive; x = no result given.

#1 Cc1nnc(SCC(=O)Nc2ccccc2N2CCOCC2)s1
#2 Cc1ccc(/C=C/C(=O)N2CCN(S(=O)(=O)c3cccs3)CC2)o1
#3 Cc1nn(-c2ccccc2)c(Cl)c1/C=N/NC(=O)c1ccc(CNc2ccccc2)o1
#4 Cc1[nH]c2ccccc2c1/C=N/NC(=S)NCc1ccccc1
#5 COc1cc(OC)cc(N(C(=O)c2ccco2)C(C(=O)NC2CCCC2)c2ccc(N(C)C)cc2)c1 (stereo not drawn)
#6 CC1(C)CC(CCNS(=O)(=O)c2ccccc2)(c2ccccc2)CCO1 (stereo not drawn)
#7 CC(CNc1ccc(Cl)cc1)(CNc1ccc(Cl)cc1)[N+](=O)[O-]
#8 S=C(Nc1ccc(Cl)c(Cl)c1)NC1CCN(Cc2ccccc2)CC1
#9 O=C(C[n+]1ccccc1)N1CCCc2ccccc21
#10 Cc1ccc(CCN2CC(C(=O)NCCN(C)C)CC2=O)cc1 (stereo not drawn)
Screen / compound no.,1,2,3,4,5,6,7,8,9,10
BJeLR lethal,-2,20,-5,-13,-3,-1,x,1,-2,-5
PrP 5UTR inh,-20,-9,-15,-26,-85,-2,-19,-27,-14,-4
Sa RN4220 lethal,4.3,1.8,x,x,-6.0,12,-9.0,6.5,5.3,3.6
Autofluor counter,8756,5023,2137,9108,2910,2004,3677,4289,4639,4037
Mtb hypoxia inh,-5,-3,x,x,16,2,13,-2,12,-2
Mtb hypoxia inh growth,1,-5,x,x,9,-2,11,2,9,-3
Sa ugtP lethal,2,-1,x,x,-9,-3,-13,-22,2,5

#11 CCOC(=O)c1csc(-n2nc(C)cc2C(F)(F)F)n1
#12 CC(C)NC(=O)c1cnc(N2CCN(c3ccccn3)CC2)c2ccccc12
#13 O=C(CCl)N1CCN(S(=O)(=O)c2ccc3c(c2)OCCCO3)CC1
#14 COC(=O)c1ccsc1NC(=O)C1=COCCO1
#15 O=C(NC1CCCCCC1)C1CCC(=O)N(Cc2ccccc2F)C1 (stereo not drawn)
#16 CCOc1ccc(S(=O)(=O)N2CCCC(C(=O)Nc3ccccc3)C2)cc1 (stereo not drawn)
#17 Cc1ccc(S(=O)(=O)N(CC(=O)NCC2CCCO2)Cc2ccc(F)cc2)cc1 (stereo not drawn)
#18 C=C1C(=O)O[C@@H]2[C@H]1[C@@H](OC(=O)/C(C)=C/C)C/C(C)=C\C(=O)/C=C(\C)[C@@H]2O
#19 O=C(CN1C(=O)NC(c2ccccc2)(c2ccccc2)C1=O)N1CCN(c2ccccc2F)CC1
#20 COc1ccc(C(=O)OC(C)C(=O)NC2CCCC2)cc1S(=O)(=O)N1CCOCC1 (stereo not drawn)
Screen / compound no.,11,12,13,14,15,16,17,18,19,20
BJeLR lethal,-9,-2,x,2,-1,21,-10,16,x,x
PrP 5UTR inh,10,-4,-23,-16,-6,-27,-12,0,-31,-3
Sa RN4220 lethal,6.1,9.9,4.9,3.7,4.7,0.1,0.0,x,-0.8,2.6
Autofluor counter,4251,3501,3775,5822,4200,4184,3395,3707,3574,u
Mtb hypoxia inh,-10,-2,17,-1,0,3,9,x,-8,-8
Mtb hypoxia inh growth,-3,-4,22,5,-2,-16,-1,x,3,3
Sa ugtP lethal,5,11,1,13,14,6,1,x,-8,1

#21 Cc1cc(NC(=O)CCC(=O)N2CCC3(CC2)OCCO3)no1
#22 CCc1c(C)nc2c(-c3ccccc3)c(C)nn2c1Nc1ccc(NC(C)=O)cc1
#23 COc1ccc(NC(=S)/N=C(\N)Nc2nc(C)c3ccc(C)cc3n2)cc1
#24 COc1ccc(C2=NS(=O)(=O)N(C)C(C(=O)NCc3cccs3)=C2)cc1OC
#25 CCC(=O)N(Cc1cc2ccccc2[nH]c1=O)C(C)C
#26 Cc1ccc(C)c(NC(=O)COC(=O)c2cc3ccccc3oc2=O)c1
#27 COc1ccccc1NC(NC(=O)c1ccccn1)C(Cl)(Cl)Cl (stereo not drawn)
#28 O=C1C2C3C=CC(C3)C2C(=O)N1c1ccc2ccccc2n1 (stereo not drawn)
#29 CSc1nsc2nc(=O)c(/C=C3\C(C)=Nc4ccc(C)cc43)c(N)n12
#30 COc1ccc(C2CC(=O)Oc3c2c(=O)n(C)c2ccccc32)c(OC)c1OC (stereo not drawn)
Screen / compound no.,21,22,23,24,25,26,27,28,29,30
BJeLR lethal,-7,-7,10,6,7,x,1,-1,-2,4
PrP 5UTR inh,-3,-31,-15,-6,-8,1,-16,-17,6,-19
Sa RN4220 lethal,4.0,-14,-4.2,3.7,-13,3.0,2.3,4.7,6.4,-0.1
Autofluor counter,23557*,x,3951,5357,2790,u,2139,3330,4015,4254
Mtb hypoxia inh,-8,-1,-18,1,23,3,1,8,-10,-1
Mtb hypoxia inh growth,-7,2,-3,0,-17,-5,5,9,4,2
Sa ugtP lethal,3,-21,0,-8,-2,1,1,5,22,2

Some values from above.
Sa ugtP lethal result of #21 : 3
Mtb hypoxia inh result of #26 : 3
BJeLR lethal result of #23 : 10

Additional compounds:
#31 COC(=O)[C@H](Cc1ccccc1)[C@@H](C)OS(N)(=O)=O
#32 COc1ccc2[nH]c(=O)c(-c3nnn(-c4ccc(Cl)nc4)n3)cc2c1
#33 Cc1nc2ccc(NC(=O)C3=NN(C)C(=O)CC3)cc2s1
#34 CCOC(=O)CNC(=O)c1ccc(OCC(F)(F)F)cc1
#35 CCOc1ccc(OCC)c(NC(=O)CN2CCN(c3cccc(C)c3)C(C)C2)c1 (stereo not drawn)
#36 CC1CC(C)(C)OC(C[N+]2(C)CCCCC2)O1 (stereo not drawn)
#37 CC(=O)OC(COc1ccccc1)Cn1cnc2cc(C)c(C)cc21 (stereo not drawn)
#38 CC(=O)Nc1ccc(C(=O)COC(=O)CCS(=O)(=O)c2ccccc2)cc1
#39 CCC(C(=O)O/N=C(\N)c1ccc(C)cc1)c1ccccc1 (stereo not drawn)
#40 COC(=O)c1ccc(CC(=O)c2ccc(O)cc2O)o1
Screen / compound no.,31,32,33,34,35,36,37,38,39,40
BJeLR lethal,1,0,x,2,8,-4,2,6,-1,-3
PrP 5UTR inh,-23,-16,-24,-56,1,-10,-18,-15,-27,-7
Sa RN4220 lethal,x,x,-0.5,-1.0,2.3,3.0,0.1,2.3,-1.4,-19
Autofluor counter,3614,4045,8380,2109,2453,3832,3768,6223,2501,3264
Mtb hypoxia inh,x,x,-2,14,8,8,-4,0,x,2
Mtb hypoxia inh growth,x,x,10,9,12,-6,10,5,x,9
Sa ugtP lethal,x,x,-4,6,-3,11,1,6,35,-2

#41 CCOc1ccc(Nc2oc(-c3ccco3)nc2C#N)cc1
#42 COc1ccc(N2C(=O)C(CC(=O)O)SC2=NN=Cc2cccs2)cc1 (stereo not drawn)
#43 COc1cc(C(=O)NCCc2cc3c(OC)ccc(OC)c3[nH]c2=O)cc(OC)c1OC
#44 COC(=O)c1ccc2c(=O)n(CCN3CCOCC3)c(SCC(=O)C(C)(C)C)nc2c1
#45 COc1ccc(NC(=O)c2ccc(NS(=O)(=O)c3c(C)noc3C)cc2)cc1OC
#46 CCOC(=O)c1c(C)n(C)c2c1cc(OC(C)=O)c1ccccc12
#47 C=CCn1c(NC(=O)c2ccc(Br)o2)c(S(=O)(=O)c2ccccc2)c2nc3ccccc3nc21
#48 O=C(Nc1ccc2c(c1)OCO2)Oc1ccccc1
#49 CC(=O)Nc1ccc(S(=O)(=O)NCc2nc(-c3ccccc3)no2)cc1
#50 CCc1cccc(NS(=O)(=O)c2cccc3cccnc23)c1
Screen / compound no.,41,42,43,44,45,46,47,48,49,50
BJeLR lethal,-10,x,-7,9,-18,8,7,7,-3,3
PrP 5UTR inh,-4,x,-2,-25,4,-24,-24,-9,-19,-4
Sa RN4220 lethal,2.5,-0.6,2.1,6.0,-2.3,4.6,19,5.1,3.8,1.1
Autofluor counter,2914,x,2415,9589,4404,3958,11004,7838,3920,4312
Mtb hypoxia inh,4,-2,1,-7,-2,15,2,11,-1,7
Mtb hypoxia inh growth,8,5,1,-5,9,9,6,2,1,1
Sa ugtP lethal,2,16,2,0,2,7,4,10,2,-7

Reformatted as tab-separated lines: entries from further up
No.	smiles	BJeLR lethal	PrP 5UTR inh	Sa RN4220 lethal	Autofluor counter	Mtb hypoxia inh	Mtb hypoxia inh growth	Sa ugtP lethal
27	COc1ccccc1NC(NC(=O)c1ccccn1)C(Cl)(Cl)Cl (stereo not drawn)	1	-16	2.3	2139	1	5	1
47	C=CCn1c(NC(=O)c2ccc(Br)o2)c(S(=O)(=O)c2ccccc2)c2nc3ccccc3nc21	7	-24	19	11004	2	6	4
26	Cc1ccc(C)c(NC(=O)COC(=O)c2cc3ccccc3oc2=O)c1	x	1	3.0	u	3	-5	1

3 entries drawn at random from those above, as already listed:
#42 COc1ccc(N2C(=O)C(CC(=O)O)SC2=NN=Cc2cccs2)cc1 (stereo not drawn)
#49 CC(=O)Nc1ccc(S(=O)(=O)NCc2nc(-c3ccccc3)no2)cc1
#46 CCOC(=O)c1c(C)n(C)c2c1cc(OC(C)=O)c1ccccc12
Screen / compound no.,42,49,46
BJeLR lethal,x,-3,8
PrP 5UTR inh,x,-19,-24
Sa RN4220 lethal,-0.6,3.8,4.6
Autofluor counter,x,3920,3958
Mtb hypoxia inh,-2,-1,15
Mtb hypoxia inh growth,5,1,9
Sa ugtP lethal,16,2,7

Later entries
#51 CC(=O)c1ccc(OC(C)C)c(CSC(=N)N)c1
#52 Cc1cccc(C(C)(C)C)c1OCCN1CCCC1
#53 CC/C(=N\N1CCN(C)CC1)c1c(O)[nH]c(=O)[nH]c1=O
#54 COc1ccc(C(C)=O)cc1COC(=O)CNC(=O)c1ccc(F)cc1
#55 O=C(C(Cc1ccccc1)NS(=O)(=O)c1cccc2cccnc12)N1CCc2ccccc21 (stereo not drawn)
#56 CC(C)CCN1C(=O)c2ccc(C(=O)Nc3cccc(S(N)(=O)=O)c3)cc2C1=O
#57 CCC1Sc2ccccc2N(CC(=O)NCCC2=CCCCC2)C1=O (stereo not drawn)
#58 CC1CCc2onc(C(=O)O)c2C1 (stereo not drawn)
#59 CC(C)C(CN(N=O)C(Cc1ccccc1)CN(C)N=O)N(CCc1ccccc1)N=O (stereo not drawn)
#60 CN(Cc1ccc(Cl)c(Cl)c1)C(=O)c1ccccc1SCC(=O)N1CCCC1
Screen / compound no.,51,52,53,54,55,56,57,58,59,60
BJeLR lethal,14,-5,2,0,-3,-3,-9,-7,x,x
PrP 5UTR inh,-32,-16,-14,-6,-10,-15,-14,5,x,-13
Sa RN4220 lethal,2.8,6.0,2.7,-0.9,8.9,4.5,7.1,4.3,7.1,2.7
Autofluor counter,2400,2099,2106,9654,4220,1986,11360,4728,x,7729
Mtb hypoxia inh,11,10,10,2,x,12,8,-7,1,5
Mtb hypoxia inh growth,-4,7,10,7,x,12,9,-5,6,16
Sa ugtP lethal,5,-1,0,3,9,14,-11,9,-6,0

#61 Cc1n[nH]c(=O)n1-c1ccc(C(C)C)cc1
#62 CCOc1ccc(-n2c([S-])c(C(=O)Nc3ccc(S(=O)(=O)N4CCOCC4)cc3)[n+]3cc(C(N)=O)ccc23)cc1
#63 CCn1c(SCC(=O)N2CCN(c3ccccc3)CC2)nc2c([nH]c3ccccc32)c1=O
#64 O=C(CC(C(=O)N1CCc2ccccc21)n1ccnc1)NCC1CCCO1 (stereo not drawn)
#65 COc1cccc(NC(=O)CCSc2nnc3scc(-c4ccccc4)n23)c1
#66 NC(=S)N/N=C/c1ccc(-c2ccc(Cl)c(Cl)c2)o1
#67 C/C(=N\Nc1ccccc1)c1cc2ccccc2oc1=O
Screen / compound no.,61,62,63,64,65,66,67
BJeLR lethal,1,-3,13,-3,-2,-13,0
PrP 5UTR inh,-31,-5,-15,-27,-32,-43,2
Sa RN4220 lethal,2.5,6.3,3.4,4.0,x,x,x
Autofluor counter,4156,3733,6317,22602*,11209,2772,1965
Mtb hypoxia inh,2,9,4,4,x,x,x
Mtb hypoxia inh growth,4,-3,3,8,x,x,x
Sa ugtP lethal,2,14,2,-4,x,x,x

From no. 1 as far as 2, as listed above:
#1 Cc1nnc(SCC(=O)Nc2ccccc2N2CCOCC2)s1
#2 Cc1ccc(/C=C/C(=O)N2CCN(S(=O)(=O)c3cccs3)CC2)o1
Screen / compound no.,1,2
BJeLR lethal,-2,20
PrP 5UTR inh,-20,-9
Sa RN4220 lethal,4.3,1.8
Autofluor counter,8756,5023
Mtb hypoxia inh,-5,-3
Mtb hypoxia inh growth,1,-5
Sa ugtP lethal,2,-1
